# RanGTP-Imp inh: inhibitors of RanGTP-importin-beta interaction, primary screen, biochemical, FRET, CFP-Ran, YFP-importin-beta, homogeneous; 1.1% of 300,000 active; AID 2216; inhibition, % (no concentration beside the values); cell-free CFP-Ran/YFP-importin-beta FRET ratio;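 active means most replicates above 15%; inconclusive means exactly half above 15%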;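 further: 0% = DMSO wells and 100% = Ran loaded with GDP instead of GTP; wells of about 40 µL received 100 nL stock; the first replicate is given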
# Beta apoptosis: blocks beta cell apoptosis; INS-1E cytokine-induced death, ATP luminescence, 48 h; percent of positive-control rescue, neutral wells zero; protection from apoptosis, % (no concentration beside the values); 0.8% of 300,000 active;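 active means all replicates at 75% or more, or half of them and the mean; inconclusive means half reach 75% but not the mean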;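 further: 0% = cytokine-treated negative control wells and 100% = positive control rescue; higher means more ATP so stronger rescue from cytokine killing; wells of about 40 µL received 100 nL stock; the first replicate is given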
# A1 inh: inhibitors of the anti-apoptotic protein A1, read as caspase activation. MEF A1-2A-BIM cells, Caspase-Glo 3/7 luminescence, 3 h; percent of clofoctol response, vehicle zero. caspase activation, % (test concentration not listed). 0.066% of 330,000 active. AID 2462;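 active means over half of replicate activation scores above 10%, or exactly half above 10 with the replicate mean above 10; inconclusive means replicate mean below 10 yet half the replicates above 10; inactive means over half of replicates below 10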;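 further: wells of about 30 µL received 50 nL stock; many hits fall short of the cut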
# Ecoli rRNA inh: inhibitors of bacterial rRNA selective over humanized ribosomes; E. coli WT GFP vs humanized-ribosome RFP mutants, fluorescence, 24 h; hits give low values; DMSO median 0, no signal -100; GFP signal change (wild-type ribosome), % (concentration not given with the values); 1.6% of 350,000 active; AID 720706;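 active means significant combined selectivity score with lowered wild-type GFP, culture density cut under 30%, mutant RFP and density less affected; inactive means any of these conditions unmet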; further: one replicate is shown; some compounds called inactive have numbers as strong as hits
# Calb FLC: C. albicans growth modulation with fluconazole. C. albicans CaCi-2 (fluconazole-resistant clinical isolate) + fluconazole, Alamar Blue growth, 48 h. growth inhibition, % (concentration not given with the values). AID 1979. 0.57% of 300,000 active;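 active means most replicates above 75%; inconclusive means exactly half above 75%; inactive means most below 75%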;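 further: all wells also contain fluconazole at 8 µg/ml as a sub-toxic cotreatment; 0% = median of DMSO wells and 100% = median of geldanamycin control wells; wells of about 8 µL received 7.5 nL stock; the first replicate is given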
# MLL AF4-AF9 inh: MLL-AF4/AF9 protein interaction inhibition | AlphaScreen, biotin-AF4 peptide binding to FLAG-AF9 | inhibition, % at 10 µM | 0.47% of 350,000 active | P42568;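 active means every replicate reaching a set inhibition limit, whatever the replicate mean, cut at about 25% in these data; inconclusive means mean inhibition reaches that limit but some replicates miss it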;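 further: 0% = plate neutral control median and 100% = total signal loss; the record names both 10 and 1 µM as test concentration; the first replicate is given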
# Target sequence (P42568 whole entry, looked up): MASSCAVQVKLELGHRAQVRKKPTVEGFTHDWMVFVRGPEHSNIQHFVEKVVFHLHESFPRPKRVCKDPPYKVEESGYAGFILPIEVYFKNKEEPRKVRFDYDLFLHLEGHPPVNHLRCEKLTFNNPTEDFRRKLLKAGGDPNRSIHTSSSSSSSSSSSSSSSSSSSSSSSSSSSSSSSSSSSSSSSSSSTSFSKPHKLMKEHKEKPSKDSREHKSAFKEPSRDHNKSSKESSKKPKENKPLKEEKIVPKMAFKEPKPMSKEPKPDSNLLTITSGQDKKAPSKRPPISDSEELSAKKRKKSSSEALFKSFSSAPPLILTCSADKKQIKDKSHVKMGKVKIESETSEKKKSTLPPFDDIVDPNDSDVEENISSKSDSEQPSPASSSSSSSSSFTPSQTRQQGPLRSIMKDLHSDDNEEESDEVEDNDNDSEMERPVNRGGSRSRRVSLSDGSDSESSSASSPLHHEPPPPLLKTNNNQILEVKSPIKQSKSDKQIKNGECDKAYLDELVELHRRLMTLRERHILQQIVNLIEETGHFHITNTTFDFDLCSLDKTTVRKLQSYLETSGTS
# T cruzi inh: T. cruzi replication inhibition; 1.4% of 300,000 active; inhibition, % (test concentration not listed); T. cruzi beta-gal in NIH3T3, luminescence, 90 h; AID 1885;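 active means mean inhibition across valid replicates above about 55%, limit read from the data; inconclusive means mean below that limit but half or more replicates reach it; inactive means mean below it, under half of replicates reach it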;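 further: signal also drops with host cell toxicity which is not excluded here; 0% = plate median of DMSO wells and 100% = zero luminescence signal; higher percent means less beta-gal luminescence so fewer parasites; stock transfer was 50 nL into about 50 µL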
# Vif TR-FRET: HIV-1 Vif–A3G interaction blockers – biochemical, TR-FRET, GST-Vif 1-94, biotin-A3G peptide, dose response retest, primary screen (AID 1117319) | TR-FRET GST-Vif / biotin-A3G peptide binding; higher % means a stronger effect; test concentration not given here; strong numbers were not always called active | one-dose inhibition, %; IC50 in µM for titrated hits | 0.57% of 260,000 active;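 active means above the screen mean plus three standard deviations and confirmed in dose response; inconclusive means results disagree or hit not tested in dose response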;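 further: Vif residues 1-94 fused to GST binding biotinylated APOBEC3G peptide 110-148; 0% = full assay without inhibitor and 100% = GST in place of GST-Vif; retest series ran down from 100 µM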
# Ecoli rRNA inh OD600: recorded beside Ecoli rRNA inh, whose call it bears; OD600 change, %; measured here: OD600 growth;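 optical density of the mix in the first replicate; 0 = DMSO median and -100 = no signal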
# Ecoli rRNA inh RFP: recorded beside Ecoli rRNA inh, whose call it bears; RFP signal change, %; measured here: RFP humanized mutant strains;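 first replicate; 0 = DMSO median and -100 = no signal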
# Starred values were filed as active, the others as inactive; ? = inconclusive; · = no result given; & = joins results of further samples. These rows are one share of the data; count on the stated rates, not on these rows.
SMILES	Ecoli rRNA inh OD600	Calb FLC	Vif TR-FRET	T cruzi inh	MLL AF4-AF9 inh	Beta apoptosis	A1 inh	Ecoli rRNA inh	Ecoli rRNA inh RFP	RanGTP-Imp inh
CN(C(=O)c1ccc2c(c1)OCO2)C1CCS(=O)(=O)C1 (stereo unspecified)	-1	7	-2%	-7	2.7	0	0.0	4	-2.6	-3.7
Cc1cnc(C(=O)Oc2ccc(-c3ccccc3)cc2)cn1	-4	-14	·	2	-0.1	0	0.3	3	1.1	1.5
CCOC(=O)Cn1ccc(NC(=O)c2ccc(F)cc2)n1	7	15	-3%	-7	-2.7	-2	-6.9	14	-2.8	?
COC(C[C@H]1O[C@@H]1C(=O)COCc1ccccc1)OC	8	-15	·	-4	-2.4	-3	-0.4	4	8.3	-1.9
Cc1ccc2c(c1)C(=O)C(=O)N2CC(=O)OC(C)C	·	-30	32%	-23	·	-9	0.3	·	·	-0.9
O=C(CCCCCn1c(=S)[nH]c2cc3c(cc2c1=O)OCO3)N1CCN(c2ccc(F)cc2)CC1	6	-13	·	8	-0.8	32	3.0	5	-0.2	4.0
COc1ccccc1/C=N/N1C(=O)C(CC(=O)Nc2ccc([N+](=O)[O-])cc2OC)SC1=Nc1cccc(C)c1C (stereo unspecified)	3	17	-4%	41	2.4	3	-0.3	16	-7.4	2.2
O=C1Nc2ccccc2/C1=C\C(=O)c1ccccc1	9.5*	8	-8%	-12	7.8	-4	0.4	-19*	5.8*	-1.8

# Other records:
SMILES	Ecoli rRNA inh OD600	Calb FLC	Vif TR-FRET	T cruzi inh	MLL AF4-AF9 inh	Beta apoptosis	A1 inh	Ecoli rRNA inh	Ecoli rRNA inh RFP	RanGTP-Imp inh
COC(=O)C1C(O)=C(C=Nc2ccc(N)cc2)C(=O)CC1(C)C (stereo unspecified)	·	17	?	-7	·	·	0.5	·	·	9.4
CC1(C)CC(NC(=O)CCc2ccccc2)CC(C)(C)N1	·	?	-4%	-3	·	-5	0.5	·	·	-0.4
COc1cc2nc(-c3ccc(Br)o3)oc(=O)c2cc1OC	·	2	1%	4	·	-2	-0.2	·	·	0.6
c1cnc(NC2CCCCCC2)nc1	15	-3	-1%	-13	0.2	-3	0.3	7	-10	1.3
COc1ccc(Nc2c(C)cccc2C)cc1	·	13	-5%	6	·	-8	0.0	·	·	5.9
COc1ccc(C)cc1NC(=O)CSc1nnnn1Cc1ccccc1	·	-5	-6%	-6	·	-2	-1.9	·	·	4.2
N=Nc1c(O)n(CC(=O)Nc2ccccc2)c2ccccc12	7	-6	2%	-4	-13	-2	-0.1	4	-0.5	6.2
Cc1ccc(SCc2cc(=O)[nH]c(N3CCOCC3)n2)cc1	·	0	-5%	1	·	1	-0.1	·	·	6.9

# (cont.)
SMILES	Ecoli rRNA inh OD600	Calb FLC	Vif TR-FRET	T cruzi inh	MLL AF4-AF9 inh	Beta apoptosis	A1 inh	Ecoli rRNA inh	Ecoli rRNA inh RFP	RanGTP-Imp inh
Cn1c(=O)n(CC(=O)O)c(=O)c2c1nc1n2CCS1	11	-7&2	6%&15%	-1&-2	-14	4&-1	0.1&0.1	18	1.2	0.7&-0.9
Cc1ccc2nc(SCCC#N)nc(C)c2c1	·	-3	?	-1	·	0	0.8	·	·	6.3
COc1cc2c(cc1OC)C(C)N(C(=O)Cn1ncc3c1-c1cc(C)ccc1OC3)CC2 (stereo unspecified)	-33	7	1%	11	1.4	-1	-0.6	-17	-3.8	4.3
COc1ccc(CCNC(=O)C2CC(O)CN2S(=O)(=O)c2ccc(Cl)cc2)cc1OC (stereo unspecified)	-1	·	3%	·	5.8	-2	-2.2	4	0.5	·
c1ccc(CN2CCN(CCN3CCn4c3nc3ccccc34)CC2)cc1	·	8	-7%	35	·	·	0.6	·	·	3.4
COc1cccc(C(=O)NCC(=O)N2CCC3(CC2)NCCc2[nH]cnc23)c1	3	-3	·	-7	3.0	-6	1.3	6	0.4	4.5
Cc1ccc(/C=N/N2CCN(Cc3ccccc3)CC2)s1	·	8	3%	7	·	0	0.3	·	·	1.8
COc1c(C)cccc1C(=O)Nc1ccc(CN2CCOCC2)cc1	1	-18	-1%	21	6.7	8	-2.3	7	3.1	1.8

# Looked up above.
# In T cruzi inh, O=C(CCCCCn1c(=S)[nH]c2cc3c(cc2c1=O)OCO3)N1CCN(c2ccc(F)cc2)CC1 shows 8
# In RanGTP-Imp inh, Cc1ccc(SCc2cc(=O)[nH]c(N3CCOCC3)n2)cc1 shows 6.9

# Next part.
SMILES	Ecoli rRNA inh OD600	Calb FLC	Vif TR-FRET	T cruzi inh	MLL AF4-AF9 inh	Beta apoptosis	A1 inh	Ecoli rRNA inh	Ecoli rRNA inh RFP	RanGTP-Imp inh
CCCCCn1c(SCCCC)nc2c1c(=O)[nH]c(=O)n2C	·	17	0%	47	·	11	-2.7	·	·	0.8
COC(=O)[C@]1(CC(C)C)N[C@H](c2ccc(-c3cccc(Cl)c3)cc2)[C@@H]2C(=O)N(C)C(=O)[C@@H]21	5	-1	·	30	-14	26	0.0	8	4.9	-0.5
CCCCNC(=S)N(C)/N=C/c1ccc(F)cc1	·	-5	6%	-4	·	-3	0.7	·	·	-1.4
COCC1CCCCN1Cc1cn[nH]c1-c1ccc(OC)cc1OC (stereo unspecified)	-7	-32	·	-1	-3.5	-2	0.9	1	-3.9	-4.9
O=C(CN1CCN(c2ccccc2)CC1)N1N=CCC1c1ccccc1 (stereo unspecified)	·	-6	10%	1	·	-7	1.4	·	·	-1.9
O=C(Nc1cccc(-c2nc3ccccc3[nH]2)c1)c1ccc(C(=O)Nc2cccc(-c3nc4ccccc4[nH]3)c2)cc1	8	-13	-3%	-6	-0.7	0	1.1	0	3.1	-0.8
COc1ccc(/C=N/NC(=O)c2c(C)nc3ccccn23)cc1[N+](=O)[O-]	2	-6	·	-5	2.2	-2	1.0	2	-1.0	?
Cc1ccc(NC(=O)CN2C(=O)NC(C)(c3ccc(Cl)cc3)C2=O)cc1 (stereo unspecified)	4	19	·	0	-10	-9	0.1	2	-4.1	-0.4

# Other entries:
SMILES	Ecoli rRNA inh OD600	Calb FLC	Vif TR-FRET	T cruzi inh	MLL AF4-AF9 inh	Beta apoptosis	A1 inh	Ecoli rRNA inh	Ecoli rRNA inh RFP	RanGTP-Imp inh
C=CCn1c(SCn2nnc3ccccc3c2=O)nnc1-c1ccc(Br)cc1	·	1	2%	15	·	1	-0.2	·	·	1.7
CCCC1=C(C(=O)OCC)C(c2cccs2)n2ncnc2N1 (stereo unspecified)	-16	12	-10%	-12	-2.4	2	-0.6	-12	-1.5	0.5
Cc1ccccc1OCCC(=O)N1CCN(S(=O)(=O)c2ccc(Cl)cc2)CC1	-14	7	-3%	7	-17	1	2.0	-7	-0.9	?
Cc1ccc(NS(=O)(=O)c2c(C)[nH]c(C)c2C(=O)N2CCCCC2)c(C)c1	10	-8	-7%	16	1.0	·	-0.5	2	1.8	0.9
COc1ccc(C(=O)NC(=S)Nc2ccc3oc(=O)ccc3c2)cc1	8	16	·	-2	-15	3	-0.4	-6	0.1	?
COc1ccc(N2CCN(C(=O)c3cccc4nc(C)oc34)CC2)cc1	9	-4	18%	-8	4.6	-3	-0.5	7	0.3	-3.0
Cc1nc(NC(=O)CSc2nnc(C3CC3)n2C)sc1C(=O)N(C)C	13	·	·	-7	0.4	-3	-0.2	9	0.6	·
COc1cccc(C2C=C(c3cccs3)Nc3ncnn32)c1OC (stereo unspecified)	·	1	3%	-20	·	-4	0.0	·	·	9.4

# Next part
SMILES	Ecoli rRNA inh OD600	Calb FLC	Vif TR-FRET	T cruzi inh	MLL AF4-AF9 inh	Beta apoptosis	A1 inh	Ecoli rRNA inh	Ecoli rRNA inh RFP	RanGTP-Imp inh
CCOC(=O)c1c(C)oc2ccc(O)c(CN(C)C)c12	·	-2	5%	4	·	1	1.0	·	·	0.0
CCCC(=O)c1ccc(N2CCN(C(=O)c3ccccc3)CC2)c(F)c1	·	-3	-4%	·	·	0	-0.8	·	·	·
Cc1ccc(-n2nnnc2SC(C(=O)c2c[nH]c3ccccc23)c2ccccc2)cc1 (stereo unspecified)	·	3	·	32	·	1	-0.2	·	·	3.6
O=C(OCC(=O)C12CC3CC(CC(C3)C1)C2)c1ccccc1O	8	·	-2%	·	-0.1	-7	-0.7	8	1.6	·
COc1ccccc1C(=O)NCCC(=O)N1CCCC(C(F)(F)F)C1 (stereo unspecified)	8	2	·	-8	-0.7	-4	0.6	5	-1.9	?
O=C(NCCCc1ccccc1)Nc1cccc(Cl)c1	-77	107*	?	20	-2.5	4	-0.4	-51	-22	-0.4
CC1CCCCN1C(=O)CSc1nnc(-c2ccco2)n1CC1CCCO1 (stereo unspecified)	·	-9	10%	-1	·	-2	1.2	·	·	-1.5
CCNCCC(CCC(C)C)c1ccc2c(c1)OCO2 (stereo unspecified)	-17	-6	·	-3	14	·	0.1	-12	3.8	0.4

# Brought forward from above: 6 compounds, then new ones.
SMILES	Ecoli rRNA inh OD600	Calb FLC	Vif TR-FRET	T cruzi inh	MLL AF4-AF9 inh	Beta apoptosis	A1 inh	Ecoli rRNA inh	Ecoli rRNA inh RFP	RanGTP-Imp inh
Cc1ccc(-n2nnnc2SC(C(=O)c2c[nH]c3ccccc23)c2ccccc2)cc1 (stereo unspecified)	·	3	·	32	·	1	-0.2	·	·	3.6
O=C(OCC(=O)C12CC3CC(CC(C3)C1)C2)c1ccccc1O	8	·	-2%	·	-0.1	-7	-0.7	8	1.6	·
COc1ccccc1C(=O)NCCC(=O)N1CCCC(C(F)(F)F)C1 (stereo unspecified)	8	2	·	-8	-0.7	-4	0.6	5	-1.9	?
O=C(NCCCc1ccccc1)Nc1cccc(Cl)c1	-77	107*	?	20	-2.5	4	-0.4	-51	-22	-0.4
CC1CCCCN1C(=O)CSc1nnc(-c2ccco2)n1CC1CCCO1 (stereo unspecified)	·	-9	10%	-1	·	-2	1.2	·	·	-1.5
CCNCCC(CCC(C)C)c1ccc2c(c1)OCO2 (stereo unspecified)	-17	-6	·	-3	14	·	0.1	-12	3.8	0.4
CS(=O)(=O)N1CCN(c2ccccc2NC(=O)c2ccc(Cl)cc2)CC1	·	29	-4%	2	·	2	-0.2	·	·	-1.7
CC(NC(=O)COc1ccccc1-c1ccccc1)c1ccccc1 (stereo unspecified)	-36	?	·	9	-4.0	0	0.7	-21	-2.2	-5.2
O=C(NCCN1CCOCC1)c1cc(-c2ccccc2Cl)nc2ccccc12	0	2	5%	-12	5.1	·	1.5	1	-1.1	-2.2
Brc1cccc2sc(N3CCN(c4ccccc4)CC3)nc12	0	19	10%	16	-0.2	-1	-0.1	-10	-1.8	-1.8

# Source: PubChem BioAssay (several laboratories)
